2A StopGo – High Throughput Screening for Foot and Mouth Disease Virus Antivirals | human cells with a luciferase reporter of 2A StopGo recoding; control for the full effect not named in the record | Potency, µM (top dose mostly 57.9 µM), for inactives: at the highest dose signal change, negative = less light | 410,000 compounds, 1.2% hits | AID 1159524, 2015; active = well fitted falling curve with a large enough effect; inconclusive = small, poorly fitted or top-dose-only effect; inactive = no such curve, though single readings can be large or run the other way; tested in HEK293T cells; also: % is scaled to controls: 0 for no effect and ±100 for the full control effect; nearly all actives have a fitted effect of over 45% in size; luciferase light after 4 h
MARV entry inh – qHTS for inhibitors of binding or entry into cells for Marburg Virus. 300,000 compounds, 1.8% hits. Marburg virus pseudotyped entry inhibition, cell reporter; control for the full effect not named in the record; about a third of the inactives were read at about 46 µM. AID 540276, 2011. Potency, µM (series often up to 37.8 µM), for inactives: at the highest dose activity change, negative = inhibition, actives largely listed as inhibitors; active = well fitted inhibition curve with a large enough effect; inconclusive = small, poorly fitted or top-dose-only effect, or effect the other way; inactive = flat fitted curve, though single readings scatter; tested in HEK293 cells; about a fifth of its hits are not listed in these tables; also: % is scaled to controls: 0 for no effect and ±100 for the full control effect; luciferase read-out
Cruzain noTriton – qHTS Assay for Promiscuous and Specific Inhibitors of Cruzain (without detergent). purified cruzain, Z-FR-AMC fluorescence, no detergent. Potency, µM, inactives show max response, negative = inhibition, usual class: inhibitors. 200,000 compounds, 2.3% hits. AID 1476, 2009; active = well fitted curve in the direction sought with a large enough effect; inconclusive = small, poorly fitted or top-dose-only effect, or another doubt; inactive = no such curve, though single readings can be large; an effect the other way counts as inactive or inconclusive;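 also: plate controls were enzyme without inhibitor for no effect and buffer without enzyme for full effect; nearly all actives have a fitted effect of over 40% in size; top concentration of the series not given in the record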
Target sequence (P25779 123-467 limits assumed): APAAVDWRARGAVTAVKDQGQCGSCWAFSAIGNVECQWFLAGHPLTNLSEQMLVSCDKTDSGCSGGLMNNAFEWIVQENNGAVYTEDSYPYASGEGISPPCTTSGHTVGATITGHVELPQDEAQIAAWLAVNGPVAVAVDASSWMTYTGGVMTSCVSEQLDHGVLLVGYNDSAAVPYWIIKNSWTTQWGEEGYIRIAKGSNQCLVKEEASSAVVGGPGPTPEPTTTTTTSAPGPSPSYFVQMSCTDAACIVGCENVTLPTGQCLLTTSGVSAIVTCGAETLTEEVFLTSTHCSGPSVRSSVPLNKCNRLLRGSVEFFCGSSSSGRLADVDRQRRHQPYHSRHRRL
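Purified cruzain at 1.5 nM, pre-incubated 15 min with compound at room temperature in 100 mM sodium acetate pH 5.5, 5 mM DTT, 0.00005% Triton X-100. Reaction started with 2 uM Z-FR-AMC; AMC fluorescence increase over 60 s gives rate.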
SARS PLpro yeast – qHTS of Yeast-based Assay for SARS-CoV PLP. 330,000 compounds, 0.19% hits. S. cerevisiae expressing SARS-CoV PLpro, growth rescue; control for the full effect not named in the record. Potency, µM (titrated, usually from 32.9 µM), for inactives: top-dose activity, positive = growth rescue; also: 0% is about no effect; nearly all actives have a fitted effect of over 55% in size; growth read by luminescence after 48 h
NS1 inh – qHTS Assay for Inhibitors of Influenza NS1 Protein Function. AID 2326, 2010. S. cerevisiae slowed by influenza A NS1, growth recovery by OD600. Potency, µM (titrated, usually from 46.1 µM), inactives show at the top dose activity, positive = more growth. 270,000 compounds, 0.4% hits; also: actives are rising curves; nearly all actives have a fitted effect of over 50% in size
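Read-out: OD600 growth recovery of NS1-expressing budding yeast. Cells grown overnight at 30C in -URA glucose medium, washed, resuspended and diluted 1:100 in 2% galactose assay medium, pH 6.0. Same strain lacking NS1 served as positive control.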
Cruzain Triton – qHTS Assay for Promiscuous and Specific Inhibitors of Cruzain (with detergent); Potency, µM, for inactives: max response, negative = inhibition, most hits filed as inhibitors; 200,000 compounds, 0.43% hits; purified cruzain, Z-FR-AMC fluorescence, 0.01% Triton; active = well fitted curve in the direction sought with a large enough effect; inconclusive = small, poorly fitted or top-dose-only effect, or another doubt; inactive = no such curve, though single readings can be large; an effect the other way counts as inactive or inconclusive;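 also: plate controls were neutral wells for no effect and buffer without enzyme for full effect; nearly all actives have a fitted effect of over 40% in size; top concentration of the series not given in the record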
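Enzyme 1.5 nM, Z-FR-AMC 2 uM, NaOAc 100 mM pH 5.5, DTT 5 mM, Triton X-100 0.01%; 15 min RT compound preincubation; kinetic ex360/em450, 60 s delta.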
LASV entry inh – qHTS for Inhibitors of binding or entry into cells for Lassa Virus; Lassa virus pseudotype entry inhibition, cell reporter; control for the full effect not named in the record; Potency, µM (series often up to 37.9 µM), without a hit: top-dose activity change, negative = inhibition, usual class: inhibitors; 300,000 compounds, 1.2% hits; AID 540256, 2011; active means well fitted inhibition curve with a large enough effect; inconclusive means small, poorly fitted or top-dose-only effect, or effect the other way; inactive means flat fitted curve, though single readings scatter; tested in HEK293 cells; also: % is scaled to controls: 0 for no effect and ±100 for the full control effect; nearly all actives have a fitted effect of over 50% in size; luciferase read-out
RE007 growth inh – qHTS Assay for Inhibitors of the HIV-1 protein Vpr; S. pombe RE007 Vpr strain, BacTiter-Glo ATP luminescence, 24 h; control for the full effect not named in the record; Potency, µM (series often up to 92.2 µM), for inactives: at the highest dose activity change, negative = less growth; 360,000 compounds, 0.21% hits; active = well fitted falling curve with a large enough effect; inconclusive = small, poorly fitted or top-dose-only effect; inactive = no such curve, though single readings can be large or run the other way;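 also: % is scaled to controls: 0 for no effect and ±100 for the full control effect; nearly all actives have a fitted effect of over 50% in size; the assay follows cell death caused by Vpr and the record does not say whether a fall means rescue or toxicity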
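Fission yeast RE007 carrying one integrated HIV-1 vpr copy, seeded at OD 0.01 in PMG+AL medium with 23 nL pinned compound. Grown 24 h at 30 degrees; viability read by BacTiter-Glo luminescence after 5 min.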
* hit, by the source's call; ? = inconclusive; / = no result given; & = joins results of further samples; [ ] = dose if it differs, or a comment. Unless noted, calls follow the shape of the dose curve; as a rule, active means well fitted rising curve with a large enough effect; inconclusive means small, poorly fitted or top-dose-only effect; inactive means no such curve, though single readings can be large or run the other way. Potency is read from the fitted curve at half-maximal effect.

Order of results – Cruzain Triton, MARV entry inh, Cruzain noTriton, 2A StopGo, NS1 inh, RE007 growth inh, LASV entry inh, SARS PLpro yeast
1: O=C(CSc1nnc2c(n1)[nH]c1ccccc12)Nc1ccc(S(=O)(=O)Nc2ncccn2)cc1
 : /, -2%, /, 17%, /, 7%, 11%, 1%
2: Cc1cc(NC(=O)NN2CCOCC2)nn1-c1c(Cl)cccc1Cl
 : /, ?, /, -3%, 5%, -4%, 18%, -1%
3: CCc1ccc2[nH]c(=O)c(CN(CCN(CC)CC)C(=O)NC3CCCCC3)cc2c1
 : -5.8%, ?, 4%, -15%, -2%, -6%, ?, -4%
4: CCN=C1S/C(=C\c2ccc(-c3cccc(C(=O)O)c3)o2)C(=O)N1CC
 : /, -22%, /, 23%, /, -1%, 2%, -1%
5: Cc1cccc(C)c1NC(=O)C(c1ccccc1)N1CCOCC1 (stereo not given)
 : 0.8%, -5%, -2%, -8%, 4%, 2%, 8%, 21%
6: CCCCC1(C)NC(=O)N(CC(=O)Nc2ccc(Cl)cc2C)C1=O (stereo not given)
 : /, -1%[46.1 µM], /, -5%, /, 4%, -25%[46.1 µM], -1%
7: Cc1cc(Cl)ccc1NC(=O)CN1C(=O)NC2(CCCC2)C1=O
 : /, 1%[46.1 µM], /, -3%, 9%, 3%, 0%[46.1 µM], -1%
8: O=C(Nc1ccc2c(c1)OCO2)C(c1ccccc1)N1CCCCC1 (stereo not given)
 : 1.1%, /, -6%, -19%, -12%, -3%, /, -5%
9: O=C1Nc2ccccc2N=C(c2ccccc2)C1N1CCOCC1 (stereo not given)
 : 0.1%, -4%, 11%, -22%, -17%, -6%, -3%, -7%
10: COc1ccc(C(=O)Nc2ccc3c(c2)nc2n3CCSC2)cc1
 : -2.3%, ?, -6%, 12%, -5%, -13%, -5%, -8%
11: COc1ccc(NC2CCCN(C(=O)CSc3ccncc3)C2)cc1 (stereo not given)
 : /, 17%, /, -15%, 8%, 1%, 0%, 0%
12: COc1ccccc1OCc1ccc(C(=O)n2nc(C)c(Cl)c2C)o1
 : -12%, 4%, 9%, 7%, -6%, -15%, 6%, -3%
13: C/C(=N\NC(=O)c1ccccc1F)c1cccc(NC(=O)c2ccc(C)cc2)c1
 : /, -6%, /, 23%, -3%, 4%, ?, -5%
14: O=C(CNCCO)N1N=C(c2cccs2)CC1c1cccs1 (stereo not given)
 : /, 10%, /, -3%, 2%, 11%, 7%, 0%
15: COc1ccc(C(=O)NC2CC2)cc1OC1CCN(Cc2cnn(C)c2)CC1
 : /, 22%, /, -9%, 4%, -4%, 11%, -4%
16: Cc1occc1C(=O)NNC(=O)c1cccc(F)c1
 : /, -21%[46.1 µM], /, 18%, /, 12%, 4%, -1%
17: COc1ccccc1Cn1cc(C(=O)c2ccc(F)cc2)c(=O)c2cc3c(cc21)OCO3
 : 4.2%, 8%[46.1 µM], 3%, -17%, /, /, 7%[46.1 µM], /
18: CCC(=Nc1ccc(Cc2ccncc2)cc1)c1c(O)n(C)c(=O)n(C)c1=O
 : 0.6%, 6%&6%&6%, 1%, -16%, -105%, -4%&-10%, -13%, -3%
19: Cc1ccc(C(C(=O)NCc2ccc(F)cc2)N(CCCO)C(=O)C2COc3ccccc3O2)o1 (stereo not given)
 : /, /, /, 4%, -1%, 4%, /, -2%
20: Cc1ccc(C)c(-c2[nH]c3c(c2-c2c(-n4cccc4)n(C)c(=O)n(C)c2=O)c(=O)n(C)c(=O)n3C)c1
 : -2.4%, 7%[46.1 µM], 20%, -12%, /, /, -21%[46.1 µM], /
21: O=C(Nc1nnc(S(=O)(=O)N2CCOCC2)s1)c1cccc(F)c1
 : -1.8%, /, 4%, 30%&40%[activator], 5%, 1%, 27%[46.1 µM], 2%
22: CN(C)C(=O)c1cccn1-c1ncc(C(F)(F)F)cc1Cl
 : /, 0%[46.1 µM], /, -3%, /, -15%, 5%[46.1 µM], 0%
23: O=C(O)CC(C(=O)O)N1C(=O)/C(=C/c2ccc(-c3nc4ccccc4s3)o2)SC1=S (stereo not given)
 : ?, ?, ?, -9%, 1%, -10%, ?, 0%
24: O=C(Nc1ccc(F)cc1)C1CCCN(S(=O)(=O)c2cccc3nonc23)C1 (stereo not given)
 : /, 4%[46.1 µM], /, 28%, -2%, -10%, 1%, 10%
25: CCS(=O)(=O)c1ncc(N(Cc2ccco2)Cc2sccc2C)c(C(=O)Nc2cc(C)ccc2C)n1
 : -4.2%, ?, -27%, -9%, /, /, -24%[46.1 µM], /
26: COc1cccc2cc(C(=O)C3=C(O)C(=O)N(CCN4CCOCC4)C3c3cccc(Cl)c3)oc12 (stereo not given)
 : /, /, /, 2%, 1%, 10%, /, 0%
27: COc1ccc(Cl)cc1NC(=O)CSC1=Nc2ccccc2C2=NC(CC(=O)NCc3ccc4c(c3)OCO4)C(=O)N12 (stereo not given)
 : -11%, -12%[46.1 µM], -5%, -19%, /, /, -20%[46.1 µM], /
28: O=C(Nc1ccc2c(c1)OCO2)C1CCN(C(=O)c2cccs2)CC1
 : 0.7%, 16%&16%[46.1 µM], -1%, -24%, -6%, 1%, 11%, 12%
29: Cc1ccc(S(=O)(=O)N2CCC(C(=O)OCC(=O)N(CC(C)C)C3CCS(=O)(=O)C3)CC2)cc1C (stereo not given)
 : /, 4%, /, -13%, 4%, -9%, 15%, 5%
30: Cc1nnc(N2CCN(c3ccccc3)CC2)c2c1nnn2Cc1ccc(F)cc1
 : -0.2%, 2%[46.1 µM], -10%, ?, /, /, 3%[46.1 µM], /
31: CC(=O)N1CCc2cc(S(=O)(=O)NCCC(=O)N3CCc4ccccc4C3)ccc21
 : 0.7%, ?, -4%, ?, -7%, 14%, ?, -1%
32: CCN(c1ccccc1)S(=O)(=O)c1ccc(C(=O)Nc2ncccc2C)cc1
 : /, 6%, /, -11%, /, 0%, 9%[46.1 µM], 2%
33: O=C(CCS(=O)(=O)Cc1ccccc1)Nc1nncs1
 : /, ?, /, -20%, -3%, 10%, -22%[46.1 µM], 0%
34: CCCOc1ccc(C2c3c(oc4ccccc4c3=O)C(=O)N2CCCN2CCOCC2)cc1 (stereo not given)
 : -4.9%, -10%, -5%, /, 13%, 0%, -22%, 0%
35: Cc1cccc(-n2c(Cc3cc(=O)[nH]c(=O)[nH]3)nnc2SCC(=O)N2CCc3ccccc32)c1
 : /, 7%, /, -5%, 11%, 5%, 7%, -10%
36: CN(C)CC(C)(C)CNc1ccc(S(=O)(=O)N2CCCC2)cn1
 : /, -2%[46.1 µM], /, -12%, /, -17%, -18%[46.1 µM], 6%
37: CCOc1cccc(C(=O)Nc2nccs2)c1
 : -4.5%, -3%[46.1 µM], -1%, 56%[activator], 3%, 6%, 5%, -56%
38: CCCCCn1c(SCC(=O)CC(=O)OCC)nc2cc(C(=O)N3CCC(C(N)=O)CC3)ccc2c1=O
 : /, 2%[46.1 µM], /, 31%[activator], /, -12%, ?, 2%
39: O=C(NN=Cc1ccccc1Cl)c1ccc([N+](=O)[O-])cc1
 : /, 11%[46.1 µM], /, 26%, /, 4%, 9%[46.1 µM], /
40: O=S(=O)(Cc1ccccc1)C1CCCCC1O (stereo not given)
 : /, ?, /, -17%, 0%, -17%, ?, -1%
41: CCC(=O)Nc1c2c(nn1-c1ccc(C)cc1C)CSC2
 : 3.7%, 10%, 2%, -13%, -2%, -6%, 17%, 0%
42: O=c1ccc(-c2ccc(S(=O)(=O)Nc3ccccc3)o2)n[nH]1
 : /, /, /, -9%, 2%, 6%, /, -4%
43: C=CCN1C(=O)N/C(=C/c2ccccc2OCC(=O)Nc2ccc(F)cc2)C1=O
 : -3.2%, -45%, -23%, 21%, 18%, 0%, -13%, 26%
44: CC(=O)Nc1ccc(NC(=O)c2ccccc2CCc2ccccc2)cc1
 : /, ?, /, -20%, 3%, -4%, 10µM*, 0%
45: COC(=O)c1ccc(NC(=O)CSc2nnc(COc3ccccc3)n2C)cc1
 : 6.7%, 9%, 16%, -6%, 4%, -20%, -3%, 3%
46: CCN(Cc1ccccc1)Cc1c(F)cccc1F
 : 4.9%, -1%, -2%, /, 3%, 0%, -12%, 5%
47: CSc1ccccc1NC(=O)c1ccc(Br)o1
 : 3.2%, 18%, -1%, 0%, -10%, -18%, 14%, -9%
48: O=C(Nc1ccc(F)c([N+](=O)[O-])c1)N1C[C@H]2C[C@@H](C1)c1cccc(=O)n1C2
 : /, -2%[46.1 µM], /, 27%, 0%, 8%, 22%[46.1 µM], -4%
49: CCc1cccc2c1NC(=O)C2(O)CC(=O)c1cccs1 (stereo not given)
 : /, 13%[46.1 µM], /, 10%, -3%, -1%, 15%, -1%
50: COc1cccc(NC(=O)c2oc3ccccc3c2NC(=O)C2CC2)c1
 : -6.2%, ?, 2%, -22%, -28%, 0%, ?, -2%
51: NS(=O)(=O)c1ccc(NC(=O)COC(=O)Cc2c[nH]c3ccccc23)cc1
 : /, -3%, /, -23%, /, -12%, 3%, 0%
52: O=c1c2c3c(sc2n2cnnc2n1CCc1ccccc1)CCCC3
 : -2.1%, ?, ?, 14%, 0%, 14%, 23%, 6%
53: O=C(NC1(c2ccccc2)CC1)C1CCC(=O)N(Cc2ccc(Cl)cc2)C1 (stereo not given)
 : /, /, /, 11%, -4%, 1%, /, -2%
54: O=c1cc(CO)oc(C(Nc2ccccn2)c2cccc(F)c2)c1O (stereo not given)
 : 3.8%, /, -1%, -5%, 19%, 1%, /, 1%
55: CCc1cccc(NC(=O)Cn2c(=O)n(CCc3ccc(OC)c(OC)c3)c(=O)c3ccccc32)c1
 : 1.4%, ?, 17%, 15%, /, /, -9%[46.1 µM], /

Source: PubChem
